High-throughput results as filed in PubChem.
Tgondii IFNg – T. gondii growth inhibition with IFN-gamma, primary screen, cell-based; Toxoplasma gondii growth in IFN-gamma-treated host cells; stronger effect = lower value; reference of the scale not given here; activity change, negative = inhibition, %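 (about 20 µM by stock and volumes)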; 3.8% of 69,000 active;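 active = below -70%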;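 note: host cells are HeLa cells infected with Toxoplasma gondii; parasite growth read as luciferase light; one replicate is shown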
Active calls of the source: *; & = joins results of further samples. Only part of the results is shown; rates above refer to the full screens.

SMILES	Tgondii IFNg
COc1ccc(OCc2nc(CSc3cc(C)c(Cl)cc3C)cs2)cc1	-49
CNC1(c2ccc(OC)cc2)Oc2ccccc2C(C#Cc2ccccc2)=C1C (stereo not given)	-107*
CCCC1COCCN1Cc1ncc[nH]1 (stereo not given)	-2
CCS(=O)(=O)N1CCC2(CC1)OC(=O)C(C)=C2C(=O)N1CCN(c2cccc(OC)c2)CC1	35
CN(C)C(=O)c1nn(C)c2c1CN(c1ncccn1)C2	14
COc1ccccc1NC(=O)Nc1ccc(-c2nc(-c3ccccc3)co2)cc1	61
Cc1ccc(C(=O)CSc2ncn(-c3ccccc3)n2)cc1	12
CCN1C(=O)CO[C@@H]2CN(C(=O)CCc3ccccc3)C[C@@H]21	-1
CN1CCOCC2(C1)CN(c1ccc(C#N)cc1)CCO2 (stereo not given)	3
O=C1CCC[C@]2(CN(C(=O)C3OCCc4ccccc43)C[C@H]2c2ccc(F)c(F)c2)N1 (stereo not given in full)	-30
O=C(c1nsc(Cl)c1Cl)N1C2CCC1CC(c1ccc(F)cc1)C2 (stereo not given)	-8
CCC(=O)N1CCC2(COCc3c(C)nc(N(C)C)nc32)C1 (stereo not given)	-3
Cc1cc(C(=O)N2CCC3(CC(NS(C)(=O)=O)C3)C2)n[nH]1 (stereo not given)	12
Fc1cnc(N2CC[C@@H]3CN(Cc4ccncc4)CCO[C@H]3C2)nc1	2
O=C(c1cc(=O)c2ccccc2[nH]1)N1C[C@H]2C[C@H](O)[C@@H](O)C[C@H]2C1	4
Cc1cccc(NC(=O)C2CCCN(C(=O)Nc3ccc(F)cc3)C2)c1C (stereo not given)	-54
CCN(CC)C(=O)c1cc2cccnc2n(Cc2ccccc2F)c1=O	-13
Cc1ccccc1OCC(=O)NCCc1sc(-c2ccc(Cl)cc2)nc1C	28
Nc1nc(N2CCOCC2)ncc1S(=O)(=O)c1ccc(Cl)cc1	21
CCN1CC2(CCCCN2C(=O)c2cccs2)CC1=O (stereo not given)	-2
CC(=O)Nc1cccc(O)c1	19
N#Cc1ccc(-c2ccc3c(c2)[C@H]2[C@H](CCN2C(=O)C2CCCCC2)[C@@H](CO)N3)cc1	-63
CCOC(=O)c1nn(CCCc2ccccc2)c2c1CN(C(=O)c1noc3c1CCCC3)CC2	-9
CO[C@@H]1CN(C)C(=O)c2ccc(NC(=O)c3ccno3)cc2OC[C@H](C)N(S(C)(=O)=O)C[C@@H]1C	119

Given with bars between the fields: part of the list above
mol | Tgondii IFNg
COc1ccc(OCc2nc(CSc3cc(C)c(Cl)cc3C)cs2)cc1 | -49
CNC1(c2ccc(OC)cc2)Oc2ccccc2C(C#Cc2ccccc2)=C1C (stereo not given) | -107*
CCCC1COCCN1Cc1ncc[nH]1 (stereo not given) | -2
CCS(=O)(=O)N1CCC2(CC1)OC(=O)C(C)=C2C(=O)N1CCN(c2cccc(OC)c2)CC1 | 35
CN(C)C(=O)c1nn(C)c2c1CN(c1ncccn1)C2 | 14
COc1ccccc1NC(=O)Nc1ccc(-c2nc(-c3ccccc3)co2)cc1 | 61
Cc1ccc(C(=O)CSc2ncn(-c3ccccc3)n2)cc1 | 12
CCN1C(=O)CO[C@@H]2CN(C(=O)CCc3ccccc3)C[C@@H]21 | -1
CN1CCOCC2(C1)CN(c1ccc(C#N)cc1)CCO2 (stereo not given) | 3
O=C1CCC[C@]2(CN(C(=O)C3OCCc4ccccc43)C[C@H]2c2ccc(F)c(F)c2)N1 (stereo not given in full) | -30
O=C(c1nsc(Cl)c1Cl)N1C2CCC1CC(c1ccc(F)cc1)C2 (stereo not given) | -8
CCC(=O)N1CCC2(COCc3c(C)nc(N(C)C)nc32)C1 (stereo not given) | -3
Cc1cc(C(=O)N2CCC3(CC(NS(C)(=O)=O)C3)C2)n[nH]1 (stereo not given) | 12
Fc1cnc(N2CC[C@@H]3CN(Cc4ccncc4)CCO[C@H]3C2)nc1 | 2
O=C(c1cc(=O)c2ccccc2[nH]1)N1C[C@H]2C[C@H](O)[C@@H](O)C[C@H]2C1 | 4
Cc1cccc(NC(=O)C2CCCN(C(=O)Nc3ccc(F)cc3)C2)c1C (stereo not given) | -54
CCN(CC)C(=O)c1cc2cccnc2n(Cc2ccccc2F)c1=O | -13
Cc1ccccc1OCC(=O)NCCc1sc(-c2ccc(Cl)cc2)nc1C | 28
Nc1nc(N2CCOCC2)ncc1S(=O)(=O)c1ccc(Cl)cc1 | 21
CCN1CC2(CCCCN2C(=O)c2cccs2)CC1=O (stereo not given) | -2
CC(=O)Nc1cccc(O)c1 | 19
N#Cc1ccc(-c2ccc3c(c2)[C@H]2[C@H](CCN2C(=O)C2CCCCC2)[C@@H](CO)N3)cc1 | -63
CCOC(=O)c1nn(CCCc2ccccc2)c2c1CN(C(=O)c1noc3c1CCCC3)CC2 | -9
CO[C@@H]1CN(C)C(=O)c2ccc(NC(=O)c3ccno3)cc2OC[C@H](C)N(S(C)(=O)=O)C[C@@H]1C | 119

Other compounds.
SMILES	Tgondii IFNg
Cn1cc(N2CC3(CCN(c4ncccn4)CC3)OCC2=O)cn1	-1
COc1cc2oc(-c3ccc(O)cc3)cc(=O)c2c(OC)c1O	-82*
COCC(NC(=O)C(=O)N1CCCc2ccccc21)c1ccnn1C (stereo not given)	-1
COCCNC(=O)[C@@H]1[C@@H](CO)[C@@H]2Cn3c(ccc(C4=CCCCC4)c3=O)[C@H]1N2Cc1cocn1	0
Cc1ccc(Nc2nc(-c3nnc(-c4ccccc4)o3)nc3ccccc23)cc1F	87
COc1ccccc1NC(=O)C(=O)NCCc1sc(-c2ccc(OC)c(OC)c2)nc1C	29
CCOC(=O)c1cc2ccsc2n1Cc1ccc(F)cc1	18
OC(CN1CCSCC1)c1c(F)cccc1Cl (stereo not given)	70
Cc1oc(-c2ccc(C(=O)Nc3ccc(Cl)cc3)cc2)nc1CN1CCN(c2ccccc2)CC1	11
CC(c1nccs1)N(C)C(=O)c1cccc(NCc2cccs2)c1 (stereo not given)	7
c1ccc(-n2cc(CN3CCn4cncc4C3)c(-c3ccncc3)n2)cc1	-36
CN(C)CC(=O)N1[C@H](C#N)[C@@H](c2ccc(-c3cccc(C(=O)N(C)C)c3)cc2)[C@@H]1CO	4
C[C@@H]1CN([C@H](C)CO)C(=O)CCCn2nncc2CO[C@H]1CN(C)CC1CCCCC1	-99*
O=C(NCCc1csc(-c2cccc(F)c2)n1)c1cccc(Br)c1	-81*
CC(=O)Nc1sc(=Nc2ccc(C)c(C)c2)n(C(C)=O)c1-c1ccc2c(c1)OCO2	-15
c1cncc(OC2CCN(Cc3nc(-c4cnccn4)no3)CC2)c1	-3
O=C(Nc1cnn(Cc2cccc(F)c2)c1)C1OCCc2ccccc21 (stereo not given)	-97*
COc1ccc(-n2ncc(NC(=O)Nc3ccc(OC(F)(F)F)cc3)c2C)cc1	33
c1ccc(OCC2CN(c3ncccn3)Cc3cncn3C2)nc1 (stereo not given)	8
CCOc1ccc(-c2nc(Cn3nnc(C(=O)Nc4ccccc4C)c3C)c(C)o2)cc1	52
COc1ccc(C#Cc2ccc([C@H]3[C@@H](CO)N4C(=O)CN(C(=O)NC(C)C)C[C@H]34)cc2)cc1	-29
CC(C)CN(Cc1ccsc1)S(=O)(=O)NCc1ccccc1	-11
O=c1ccc2c([nH]1)CCN(Cc1cccs1)CC2	114
CN1C(=O)c2cc(NS(=O)(=O)c3cccc(F)c3)ccc2OC[C@@H]2O[C@H](CC(=O)N3CCc4ccccc4C3)CC[C@H]21	-46
COC(=O)Cc1c(C)ncnc1OCC(=O)Nc1ccc(F)cc1	-2
CCc1c(C(=O)N2CCC3(CC2)CNC(=O)C3)[nH]c2ccccc12	4
Cc1cc(C)c2[nH]c(C(=O)NCCn3nc(C)nc3C)c(C)c2c1	42
CCc1cnc(N2CCC3(CC2)CC(N2CCOCC2)CO3)nc1 (stereo not given)	-1
Cc1nn(C)c(C)c1CCC(=O)N(C)Cc1cc(C(C)(C)C)n[nH]1	2
Cc1oc(C2CCN(C(=O)Nc3ccc4c(c3)OCCO4)CC2)nc1C(=O)N(C)C	66
N#C[C@@H]1[C@@H](c2ccccc2-c2cccc(F)c2)[C@@H](CO)N1C(=O)NC1CCCCC1	-46
c1nc(NCC2CNCCOC2)c2ccsc2n1 (stereo not given)	5
Cc1nnsc1-c1nc2cccc(C)c2c(=O)o1	8
C[C@@H]1CN([C@H](C)CO)C(=O)c2cc(/C=C/c3ccccc3)cnc2O[C@@H]1CN(C)S(=O)(=O)c1ccccc1F	-88*
CC(Cc1cnccn1)n1ccnc1-c1nccn1C (stereo not given)	-1
COc1ccc(-n2c(=O)c(C(=O)NCc3ccccc3C)c(O)c3cccnc32)cc1	137
CN(C)S(=O)(=O)N1CCc2c(nc(-c3ccncc3)[nH]c2=O)C1	82
C=CCSc1nc(-c2ccccc2)c(-c2ccccc2)[nH]1	-60
COc1cccc(CC(=O)N2CCc3ncnc(NC4CC4)c3CC2)c1	-3
CC(C)c1noc(C2CCCN(Cc3cc4ccccc4[nH]c3=O)C2)n1 (stereo not given)	-1
CCOc1ccc(CCNC(=O)c2nc(N3CCC(C)CC3)c3ccccc3n2)cc1OCC	-98*
O=C1CCCN1Cc1nnc2n1CCN(C(=O)c1ccoc1)C2	5
CCC(=O)Nc1cccc(OCC(=O)N[C@@H]2C[C@H]3CC[C@@H]2C3)c1	-6
FC(F)(F)c1cccc(-c2noc(-c3ccsc3)n2)c1	23
Cn1cnc2cc(C(=O)NC3CCc4ccc(S(=O)(=O)N5CCOCC5)cc43)ccc21 (stereo not given)	1
Cc1cc(C)c(Cn2cncn2)cc1CN1CCC2(CC1)CNC(=O)C2	-17
O=C(NCc1cccc(F)c1)c1cc2c(s1)CCN2C(=O)c1ccccc1	-82*
COc1cc(NC(=O)NCC(c2cccnc2)c2cn(C)c3ccccc23)cc(OC)c1OC (stereo not given)	436

2 compounds drawn at random from those above, as already listed:
SMILES	Tgondii IFNg
COc1cccc(CC(=O)N2CCc3ncnc(NC4CC4)c3CC2)c1	-3
CCOc1ccc(CCNC(=O)c2nc(N3CCC(C)CC3)c3ccccc3n2)cc1OCC	-98*

(continued)
SMILES	Tgondii IFNg
C[C@@H]1CC=CC[C@@H](c2ccccc2)NC(=O)[C@@H](C)N(C)C(=O)c2ccccc2O1 (mixture of isomers)	-13
CC1CCN(c2ncnc3c2cnn3CC(=O)Nc2ccc(F)c(Cl)c2)CC1	-86*
O=C(CSc1nccc(C(F)(F)F)n1)c1cccnc1	33
Cc1cc(C)n(CCN(C)Cc2cnn3cccnc23)n1	-1
CN(C)C(=O)c1ccc(-c2ccc(C3[C@@H]4CN(Cc5ccc6c(c5)OCO6)C[C@H]3N4)cc2)cc1 (stereo not given in full)	-60&-17
O=C(c1cnccn1)N1C[C@H]2[C@@H](c3ccccc31)[C@@H](CO)N2CC1CCCC1	-2
O=C(C[C@@H]1CC[C@H]2[C@@H](COC[C@@H](O)CN2Cc2cc(F)ccc2F)O1)NCc1ccc(Oc2ccccc2)cc1	-61
COc1cc(CN2CCC(O)(c3ccc(C)cn3)CC2)cc(Cl)c1OC	5
CC12CN3CC(C)(CN(C1)C3c1ccc([N+](=O)[O-])o1)C2 (stereo not given)	0
N#CC(c1ccnc(OCc2ccc(CN3CCOCC3)cc2)n1)c1nc2ccccc2s1 (stereo not given)	-66
COc1ccc(S(=O)(=O)NCCSc2ccc(C)cc2)cc1OC	10
CC(C)(C)[S@](=O)N1Cc2cc(C(=O)NCc3ccccc3F)nc(-c3cccc(-c4cncnc4)c3)c2[C@@H]1CCO	-59
Cc1ccoc1C(=O)NCC1(Cn2ccnc2)CC1	2
Cn1ncc(N2CCOC(CCNc3ncnc4c3CCNC4)C2)cc1=O (stereo not given)	-1
CCN(CC)c1ccnc(C2COCCN2)n1 (stereo not given)	-4
COc1ccc(CNCc2cccc(OC)c2OC)cc1	-7
CN(C)c1ccc(CNC(=O)c2nc(Nc3ccc(F)cc3)c3ccccc3n2)cc1	14
CN1CCN([C@H]2CN(C(=O)CCC3CCCC3)C[C@@H]2O)CC1	3
CC(=O)NC1CC2(CCN(c3ncccn3)CC2)Oc2ccccc21 (stereo not given)	10
CCn1c(C2CCN(C(=O)CC3C=CS(=O)(=O)C3)CC2)nn(C)c1=O (stereo not given)	12
Cc1ncc(CN2CCCC(c3n[nH]c(=O)n3-c3ccccc3)C2)s1 (stereo not given)	28
CS(=O)(=O)N1CCC2(C=Cc3cc(F)ccc3O2)CC1	9
CCN1CCN(C(=O)C2=C(C)C(=O)OC23CCN(S(=O)(=O)c2cccs2)CC3)CC1	19
CN1CCc2cc(C(=O)N3CCCC3)c(N(C)C)nc2CC1	-6
CC(=O)N1CCC2(CCCN2)CC1	-35
CCN(CC)C(=O)c1cc(=O)n(CC(=O)Nc2cc(Cl)ccc2C)c2ccccc12	2
COc1cc(OC)c2nc(NCCC(N)=O)cc(C)c2c1	10
Cc1cc(NC(=O)CSc2nnc3n(Cc4ccccc4)c4ccccc4n23)no1	-2
CC(C)c1nccn1CCCNC(=O)c1ccc(-c2ccc3c(c2)OCO3)nc1	-16
CO[C@@H](CN(C)Cc1nccs1)[C@@H](C)CN([C@@H](C)CO)S(=O)(=O)c1ccc(F)cc1	-25
CCS(=O)(=O)Nc1ccc2c(c1)C(=O)N(C)C[C@H](OC)[C@H](C)CN(CC1CCCCC1)[C@H](C)CO2	-44
CCN(C/C=C/c1ccccc1)C(=O)c1sc2ncn(C)c(=O)c2c1C	-4
O=C(OCC1CC(c2ccccc2)=NO1)c1ccc2ccccc2n1 (stereo not given)	68
O=C(c1ccc(Cl)c(Cl)c1)c1nn2c(nc(=O)c3ccccc32)s1	84
Cc1[nH]c(SCC(=O)Nc2ccc(S(N)(=O)=O)cc2)nc1Cc1ccccc1	88
Cc1ccnn1CC(C)c1cc(=O)n2[nH]cc(C(=O)Nc3ccc(Cl)cc3)c2n1 (stereo not given)	21
O=S(=O)(Cc1c(Cl)cccc1Cl)c1cccs1	12
Cc1onc(NC(=O)c2nccnc2C(=O)O)c1Br	53
Cc1ccc(NC(=O)C(CC(C)C)NS(=O)(=O)c2ccc3[nH]c(=O)ccc3c2)c(C)c1 (stereo not given)	39
CSc1cccc(NC(=O)c2nc(Nc3cccc(C)c3)c3ccccc3n2)c1	-82*
CCN1C[C@@H]2CN(C(=O)c3ccnn3C)C[C@H]2C1=O	45
Cc1cc(C)n(-c2ccc(C(=O)Nc3nnc(CCc4ccccc4)s3)cc2)n1	-26
CC(C)(C)[S@](=O)N1Cc2cc(C(=O)NCC(F)(F)F)nc(-c3cccc(-c4cccc(F)c4)c3)c2[C@@H]1CCO	-61
CSCC(=O)N1CCC2(CC1)CC(Nc1ncccn1)C2	3
